2A StopGo – High Throughput Screening for Foot and Mouth Disease Virus Antivirals; human cells with a luciferase reporter of 2A StopGo recoding; control for the full effect not named in the record; Potency, µM (doses to about 57.9 µM), for inactives: at the highest dose signal change, negative = less light; 1.2% of 410,000 active; AID 1159524, 2015; active = well fitted falling curve with a large enough effect; inconclusive = small, poorly fitted or top-dose-only effect; inactive = no such curve, though single readings can be large or run the other way; tested in HEK293T cells; also: % is scaled to controls: 0 for no effect and ±100 for the full control effect; nearly all actives have a fitted effect of over 45% in size; luciferase light after 4 h
Lassa entry inh – qHTS for Inhibitors of binding or entry into cells for Lassa Virus; Lassa virus pseudotype entry inhibition, cell reporter; control for the full effect not named in the record; 1.2% of 300,000 active; Potency, µM (doses to about 37.9 µM), without a hit: top-dose activity change, negative = inhibition, usual class: inhibitors; active means well fitted inhibition curve with a large enough effect; inconclusive means small, poorly fitted or top-dose-only effect, or effect the other way; inactive means flat fitted curve, though single readings scatter; tested in HEK293 cells; also: % is scaled to controls: 0 for no effect and ±100 for the full control effect; nearly all actives have a fitted effect of over 50% in size; luciferase read-out
Cruzain inh Det – qHTS Assay for Promiscuous and Specific Inhibitors of Cruzain (with detergent); Cruzipain (Trypanosoma cruzi), P25779; purified cruzain, Z-FR-AMC fluorescence, 0.01% Triton; Potency, µM, inactives show max response, negative = inhibition, most hits filed as inhibitors; 0.43% of 200,000 active; active = well fitted curve in the direction sought with a large enough effect; inconclusive = small, poorly fitted or top-dose-only effect, or another doubt; inactive = no such curve, though single readings can be large; an effect the other way counts as inactive or inconclusive;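 also: plate controls were neutral wells for no effect and buffer without enzyme for full effect; nearly all actives have a fitted effect of over 40% in size; top concentration of the series not given in the record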
Target sequence (P25779 123-467 limits assumed): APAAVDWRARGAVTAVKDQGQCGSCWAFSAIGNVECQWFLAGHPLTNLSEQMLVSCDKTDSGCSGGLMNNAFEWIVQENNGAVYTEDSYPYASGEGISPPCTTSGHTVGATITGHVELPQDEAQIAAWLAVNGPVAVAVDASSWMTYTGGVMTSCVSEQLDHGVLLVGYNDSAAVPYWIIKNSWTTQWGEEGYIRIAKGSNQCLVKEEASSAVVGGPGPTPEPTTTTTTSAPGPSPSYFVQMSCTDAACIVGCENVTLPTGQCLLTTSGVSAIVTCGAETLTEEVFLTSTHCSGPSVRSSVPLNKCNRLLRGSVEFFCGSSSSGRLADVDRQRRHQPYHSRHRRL
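In this qHTS format, compounds are incubated with 1.5 nM cruzain for 15 min at room temperature before 2 uM Z-FR-AMC is added. Release of AMC is followed at 360/450 nm, and progress is taken as the 60 s fluorescence difference.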
Cruzain noTriton – qHTS Assay for Promiscuous and Specific Inhibitors of Cruzain (without detergent); Cruzipain (Trypanosoma cruzi), P25779; purified cruzain, Z-FR-AMC fluorescence, no detergent; Potency, µM, for inactives: max response, negative = inhibition, usual class: inhibitors; 2.3% of 200,000 active; active = well fitted curve in the direction sought with a large enough effect; inconclusive = small, poorly fitted or top-dose-only effect, or another doubt; inactive = no such curve, though single readings can be large; an effect the other way counts as inactive or inconclusive;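 also: plate controls were enzyme without inhibitor for no effect and buffer without enzyme for full effect; nearly all actives have a fitted effect of over 40% in size; top concentration of the series not given in the record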
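Purified cruzain at 1.5 nM, pre-incubated 15 min with compound at room temperature in 100 mM sodium acetate pH 5.5, 5 mM DTT, 0.00005% Triton X-100. Reaction started with 2 uM Z-FR-AMC; AMC fluorescence increase over 60 s gives rate.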
RE007 growth inh – qHTS Assay for Inhibitors of the HIV-1 protein Vpr; S. pombe RE007 Vpr strain, BacTiter-Glo ATP luminescence, 24 h; control for the full effect not named in the record; Potency, µM (doses to about 92.2 µM), without a hit: at the top dose activity change, negative = less growth; 0.21% of 360,000 active; AID 651644, 2012; active = well fitted falling curve with a large enough effect; inconclusive = small, poorly fitted or top-dose-only effect; inactive = no such curve, though single readings can be large or run the other way;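 also: % is scaled to controls: 0 for no effect and ±100 for the full control effect; nearly all actives have a fitted effect of over 50% in size; the assay follows cell death caused by Vpr and the record does not say whether a fall means rescue or toxicity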
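Fission yeast RE007 carrying one integrated HIV-1 vpr copy, seeded at OD 0.01 in PMG+AL medium with 23 nL pinned compound. Grown 24 h at 30 degrees; viability read by BacTiter-Glo luminescence after 5 min.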
MARV entry inh – qHTS for inhibitors of binding or entry into cells for Marburg Virus; Marburg virus pseudotyped entry inhibition, cell reporter; control for the full effect not named in the record; about a third of the inactives were read at about 46 µM; Potency, µM (highest dose often 37.8 µM), for inactives: at the highest dose activity change, negative = inhibition, usual class: inhibitors; 1.8% of 300,000 active; AID 540276, 2011; active = well fitted inhibition curve with a large enough effect; inconclusive = small, poorly fitted or top-dose-only effect, or effect the other way; inactive = flat fitted curve, though single readings scatter; tested in HEK293 cells; about a fifth of its hits are not listed in these tables; also: % is scaled to controls: 0 for no effect and ±100 for the full control effect; luciferase read-out
SARS PLpro yeast – qHTS of Yeast-based Assay for SARS-CoV PLP. S. cerevisiae expressing SARS-CoV PLpro, growth rescue; control for the full effect not named in the record. 0.19% of 330,000 active. Potency, µM (highest dose often 32.9 µM), without a hit: top-dose activity, positive = growth rescue; also: 0% is about no effect; nearly all actives have a fitted effect of over 55% in size; growth read by luminescence after 48 h
NS1 inh – qHTS Assay for Inhibitors of Influenza NS1 Protein Function | S. cerevisiae slowed by influenza A NS1, growth recovery by OD600 | Potency, µM (highest dose often 46.1 µM), inactives show at the top dose activity, positive = more growth | 0.4% of 270,000 active; also: actives are rising curves; nearly all actives have a fitted effect of over 50% in size
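S. cerevisiae expressing influenza A NS1, grown in glucose, washed, then diluted 1:100 into pH 6.0 -URA galactose medium with 23 nl compound. Growth recovery read as OD600; NS1-free strain serves as control.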
The depositor's hits bear a star; ? = inconclusive; / = no result given; & = joins results of further samples; [ ] = dose if it differs, or a comment. Unless noted, calls follow the shape of the dose curve; as a rule, active means well fitted rising curve with a large enough effect; inconclusive means small, poorly fitted or top-dose-only effect; inactive means no such curve, though single readings can be large or run the other way. Potency is read from the fitted curve at half-maximal effect. An unsorted share of the library, and some 4.6% of all compounds hit somewhere here.

SMILES	2A StopGo	Lassa entry inh	Cruzain inh Det	Cruzain noTriton	RE007 growth inh	MARV entry inh	SARS PLpro yeast	NS1 inh
FC(F)(F)c1ccc(/C=N/n2c(COc3ccccc3)n[nH]c2=S)cc1	-15%	?	/	/	3%	7%[46.1 µM]	-3%	4%
CCc1ccc(NS(=O)(=O)c2ccc3[nH]cc(C(=O)NCc4ccc(C)cc4)c(=O)c3c2)cc1	26%	?	-5.3%	?	/	11%[46.1 µM]	/	/
Cn1nc(-c2ccccc2F)c2cc(C(=O)NCc3cccc(Cl)c3)sc21	-22%	?	-0.8%	?	/	?	/	/
CNC(=O)/C(=C\c1cccc(Oc2ccccc2)c1)NC(=O)c1ccccc1	41%[activator]	?	-1.4%	1%	-2%	-28%	7%	0%
CCCCC(=O)Nc1ccc(NC(=S)NC(=O)CC(C)C)cc1OC	3%	-7%	-11%	1%	18%	0%	30%	2%
Brc1ccccc1-c1nnc2sc(-c3ccc4c(c3)OCCO4)nn12	/	-19%	-1.8%	2%	5%	-25%	-7%	-15%
Cc1ccc(N2CC(C(=O)NC3CC3)CC2=O)cc1Cl (stereo not drawn)	-13%	9%	/	/	6%	7%[46.1 µM]	0%	2%
COc1ccc(NC(=O)N2CCCCC2c2cccnc2)cc1 (stereo not drawn)	-4%	15%	-0.9%	-8%	7%	30%	0%	-3%
CC1=CC(C)(C)NC(=S)N1c1ccc(N(C)C)cc1	0%	0%[46.1 µM]	/	/	-5%	4%[46.1 µM]	/	/
Cn1cnnc1SC(C(=O)Nc1ccc(F)cc1)c1ccccc1 (stereo not drawn)	-11%	-3%	-2.4%	-1%	9%	6%	3%	6%
CCC1(C)Cc2c(sc3c2c(=O)n(C)c2nnc(SCc4ccccc4)n32)CO1 (stereo not drawn)	27%	-1%	2.0%	1%	7%	-1%	1%	4%[9.22 µM]
COc1ccc(OC)c(C(=O)NC2CCSc3ccccc32)c1 (stereo not drawn)	25%	-2%	/	/	6%	0%[46.1 µM]	-20%	-26%
Cc1nn(-c2ccc(Cl)cc2)c(=O)c2c(C)noc12	-9%	-9%	/	/	-9%	-23%	-2%	-5%
Cc1cccc(N2CCN(S(=O)(=O)c3cn(C)c(C)n3)CC2)c1C	0%	0%[46.1 µM]	-1.5%	8%	/	/	/	/
CCOc1ccc(CCNC(=O)c2ccc3nc(N4CCC(C)CC4)sc3c2)cc1OCC	?	-14%[46.1 µM]	-2.8%	10%	/	0%[46.1 µM]	/	/
Cc1ccc(N=C(N(C)C)P(=O)(N(C)C)N(C)C)c(C)c1	-14%	-8%[46.1 µM]	/	/	250%	6%[46.1 µM]	1%	/
CCOc1c(Cl)cc(CNCc2ccccn2)cc1OC	-1%	4%[46.1 µM]	/	/	-5%	-1%[46.1 µM]	0%	/
COc1c(Cl)cccc1-c1cn2ccccc2n1	19%	?	/	/	?	?	-13%	-61%
COc1ccc(/C(C)=N\NC(=O)CNC(=O)C(c2ccccc2)c2ccccc2)cc1OC	-18%	-1%[46.1 µM]	/	/	9%	-12%[46.1 µM]	0%	19%
COc1ccccc1C(=O)Nc1ccc(NC(=O)c2cccs2)cc1	-25%	1%[46.1 µM]	-5.9%	0%	/	/	/	/
N#Cc1ccccc1NC(=O)c1ccc(-c2ccccc2Cl)o1	17%	13%	-4.2%	-29%	-13%	7%	-6%	-14%[9.22 µM]
COc1cc(C(=O)OCCNC(=O)c2ccncc2)cc(OC)c1OC	-17%	17%	-2.7%	-4%	15%	14%	?	-1%
CCOC(=O)C1=C(COC(=O)COc2ccc(C(C)=O)cc2)NC(=O)NC1C (stereo not drawn)	-22%	6%	/	/	3%	-4%[46.1 µM]	-6%	/
CN1C(=S)SC(N(O)C(=O)Nc2cccc3ccccc23)C1(C)C (stereo not drawn)	-23%	7%	1.5%	-1%	-12%	10%	3%	7%
O=C(CN1C(=O)NC2(CCc3ccccc32)C1=O)NCc1ccc(F)cc1 (stereo not drawn)	-21%	3%	/	/	3%	2%	0%	/
O=C(CSc1nc2c(sc3ccccc32)c(=O)n1CCO)NCC1CCCO1 (stereo not drawn)	6%	?	-4.6%	-11%	1%	-6%[46.1 µM]	-3%	-2%
Cc1ccc(C2=NS(=O)(=O)N(C)C(C(=O)NC3CCCCC3)=C2)cc1	?	/	/	/	0%	/	-1%	-2%
Cn1c(=O)cc(SCC(=O)Nc2cccnc2)c2ccccc21	?	1%	-4.5%	-8%	-22%	2%[46.1 µM]	-2%	-4%
CSCCC(NS(=O)(=O)c1ccccc1F)C(=O)Nc1cccc(C)n1 (stereo not drawn)	20%	7%	/	/	-12%	-2%	6%	10%
COc1ccc(/C(=N/OC(C)=O)c2nccc3cc(OC)c(OC)cc23)cc1OC	-10%	/	/	/	-3%	/	1%	3%
Cc1ccc(CS(=O)(=O)CCC(=O)NCc2cccs2)cc1	1%	15%	1.9%	-6%	13%	6%	-3%	-6%
O=C(Nc1cccc(Cl)c1N1CCOCC1)c1ccc([N+](=O)[O-])o1	-17%	/	/	/	-4%	/	-6%	4%
O=C1CCCN1CC1CCN(Cc2nc(CC3CC3)no2)CC1	0%	?	/	/	-6%	1%[46.1 µM]	1%	2%
CC(=O)Nc1ccc(NC(=O)CC(C)n2ccc(C)n2)cc1 (stereo not drawn)	-13%	2%[46.1 µM]	0.1%	-5%	/	/	/	/
Cc1nnc(SCC(=O)NC2CC2)s1	-13%	-8%[46.1 µM]	/	/	-5%	19%[46.1 µM]	1%	13%
O=C(NCC(c1cccnc1)N1CCN(Cc2ccccc2)CC1)C(=O)Nc1ccc(F)cc1 (stereo not drawn)	-6%	-9%[46.1 µM]	-3.0%	1%	/	/	/	/
O=C(NN=C1CCCCC1)c1ccccc1OCc1ccc(F)cc1	-8%	6%	0.5%	-2%	0%	-4%	-8%	12%
CCN(CC)C(=O)C1CCCN(c2ccc([N+](=O)[O-])cc2/C=N/NC(=O)c2ccc([N+](=O)[O-])cc2)C1 (stereo not drawn)	0%	/	3.5%	4%	-11%	/	-3%	5%
CCCCOc1ccc(C(=O)Nn2cnnc2)cc1	3%	1%	-0.6%	14%	5%	13%&13%	-8%	3%
COC(=O)c1ccc(C(=O)OC)c(NC(=O)CSc2cccc[n+]2[O-])c1	?	/	-11%	-30%	?	-3%	-42%	-281%
CCOc1ccc2[nH]c(=O)c(CN(Cc3ccco3)C(=O)c3ccc(Br)cc3)cc2c1	-14%	1%	-5.4%	22%	2%	?	2%	-2%
Cc1ccc2nc(-c3ccc(SCC(=O)Nc4cc(C)on4)nc3)[nH]c2c1	20%	-3%	-9.8%	2%	37%	-2%[46.1 µM]	?	-1%
OCC1(Cc2cccc(Cl)c2)CCCN(Cc2ccc3cc(F)ccc3n2)C1 (stereo not drawn)	-24%	-6%[46.1 µM]	/	/	-22%	?	1%	-3%
CSc1nc(N(C)CCO)c2sc3nc(-c4ccco4)c4c(c3c2n1)CCC4	-6%	14%	8.9µM*	-25%	-3%	7%	1%	?
CCc1nc2ccc(C(=O)Nc3nnc(C)s3)cc2nc1CC	21%	12%	/	/	-13%	19%[46.1 µM]	2%	5%
Cc1cccc(NC(=O)CN2CCOCC2)c1C	6%	/	/	/	9%	/	1%	13%
O=C(CSc1nnc(NC(=O)c2cccc(F)c2)s1)NC1CC1	39%[activator]	3%	/	/	-11%	19%	2%	10%
CC(C)C[C@H](N)c1nnc(S(=O)(=O)Cc2cccc(F)c2)o1	-13%	3%	11µM*	13µM*	-3%	?	-26%	-177%
CCCC(=O)N=c1sc2cccc(F)c2n1C	43%[activator]	/	-1.6%	-4%	-21%	/	2%	-11%
COc1ccc(-c2nnc3ccc(SCC(=O)Nc4nc5ccc(C)cc5s4)nn23)cc1OC	-14%	19%	-2.5%	?	0%	-8%	23%	11%
COc1cc(OC)c(C(=O)CCC(=O)O)cc1OC	-18%	3%	-2.1%	-4%	-14%	?	-7%	10%
Cn1c(SCC(=O)NNC(=O)c2ccccc2O)nnc1-c1ccccc1	58%[activator]	?	/	/	-3%	-19%[46.1 µM]	?	-2%
COc1cc(-c2cc(C(F)(F)F)n3ncc(C(=O)O)c3n2)cc(OC)c1OC	17%	22%	-1.9%	-4%	-3%	15%	8%	6%
COCCNC(=S)N(CCc1c(C)[nH]c2ccc(Cl)cc12)Cc1cccs1	-28%	?	/	/	4%	?	-7%	/
CCOC(=O)/C(C)=N/NC(=O)c1cccc([N+](=O)[O-])c1	11%	-12%	/	/	-2%	1%[46.1 µM]	-2%	/
O=C1CN(C(=O)CSc2nnc3ccccn23)c2ccccc2N1	-9%	-14%	-2.2%	-8%	4%	?	-5%	2%
CCN(CC)S(=O)(=O)c1ccc(NC(=O)COC(=O)c2ccc(NC(=O)CC#N)cc2)cc1	-12%	/	/	/	8%	/	0%	?
CN1CCC=C(C(=O)N2c3ccccc3Sc3ccc(Cl)cc32)C1	18%	?	/	/	-5%	?	-1%	-1%
Cc1ccccc1OCC(=O)Nc1ccccc1C(=O)OCc1cc(=O)n2nc(C3CC3)sc2n1	?	25%[46.1 µM]	2.2%	22%	/	/	/	/
CCCCS/C(N)=N/N=C/c1cc(C)ccc1O	53%[activator]	17%	?	?	-27%	0%	-5%	-11%
CC1CCN(C(=O)Cn2ncc3c4ccccc4n(Cc4ccc(Cl)cc4)c3c2=O)CC1	-9%	19%[46.1 µM]	-6.0%	-1%	/	-18%[46.1 µM]	/	/

From PubChem
